# Vaccinia mCherry: qHTS for Stage-Specific Inhibitors of Vaccinia Orthopoxvirus: mCherry Reporter Primary qHTS | Vaccinia virus mCherry reporter infection, fluorescence; about a quarter of the inactives have no number | Potency, µM (top dose mostly 36.5 µM), inactives show top-dose activity change, negative = inhibition, usual class: inhibitors | 0.63% of 310,000 active; active = well fitted inhibition curve with a large enough effect; inconclusive = small, poorly fitted or top-dose-only effect; inactive = no such curve, though single readings can be large or run the other way; tested in A549 cells; further: nearly all actives have a fitted effect of over 35% in size; inactives centre near -10
# Vaccinia Venus: qHTS for Stage-Specific Inhibitors of Vaccinia Orthopoxvirus: Venus Reporter Primary qHTS; Potency, µM (highest dose often 36.5 µM), inactives show at the highest dose activity change, negative = inhibition, most hits filed as inhibitors; Vaccinia virus Venus reporter expression, fluorescence; AID 720580, 2013; 0.46% of 330,000 active; active means well fitted inhibition curve with a large enough effect; inconclusive means small, poorly fitted or top-dose-only effect; inactive means no such curve, though single readings can be large or run the other way; tested in A549 cells; further: nearly all actives have a fitted effect of over 30% in size; inactives centre near -10
# Active calls of the source: *; i = inactive; ? = inconclusive; . = not tested or not shown; [ ] = remark or other dose. On the % scale 0 is the no-effect control and ±100 the full control effect; potency means the concentration at half of the fitted maximal effect.
Compound | Vaccinia mCherry | Vaccinia Venus
NS(=O)(=O)c1ccc(NC(=O)COC(=O)Cn2cnc3ccccc3c2=O)cc1 | i | -15%
CCCCC(=O)N(Cc1ccc(-c2ccccc2-c2nn[nH]n2)cc1)[C@@H](C(=O)O)C(C)C | i | -17%
CC(C(=O)N1CCCCC1)N1C(=O)c2ccccc2C1=O (configuration not stated) | . | 4%
O=C1c2nccnc2C(=O)N1Cc1ccccc1 | i | -16%
COc1ccc(C(=O)NC(=S)Nc2ccc(Cc3ccncc3)cc2)cc1 | -25% | -20%
CCNC(=O)CC1C(=O)N(c2cccc(OC)c2)C(=O)N1Cc1ccc(OC)c(OC)c1 (configuration not stated) | 2% | -3%
COc1ccc(C2(O)CCN(Cc3nnnn3Cc3ccc(C)cc3)CC2)cc1 | -1% | -16%
COC(=O)C1=C(c2cccc(OCc3ccccc3)c2)C[C@@H]2CC[C@H]1N2C(=O)NC1CCN(Cc2ccccc2)CC1 | -15% | ?
O=C(C1=NN[C@@H]2C(=O)N(Cc3ccccc3)C(=O)[C@H]12)c1ccc(F)cc1 | i | -19%
COc1ccc(-c2nc(SCC(=O)Nc3ccc4c(c3)OCCO4)c(-c3ccc(F)cc3)[nH]2)cc1 | -8% | -20%
CN(C)CC(C)(O)c1ccc2c(c1)CN(C(=O)c1ccc(-n3cccn3)cc1)CCO2 (configuration not stated) | -6% | 10%
CCC(C)[C@H](NC(=O)NCCCn1ccnc1)C(=O)OC (some centres not stated) | -14% | -12%
CCOC(=O)c1c(C)[nH]c(C)c1C(=O)COC(=O)c1cc2ccccc2cc1OC | -1% | -26%
COC(=O)c1sc2cccc(F)c2c1S(=O)(=O)N1CCN(c2cccc(OC)c2)CC1 | 0% | -5%
COc1cc(OC)c2c(C)cc(=O)oc2c1C(CCN1CCN(c2ccccc2)CC1)c1ccc2c(c1)OCO2 (configuration not stated) | i | -26%
C/C(=N\Nc1nc(-c2cc(C)ccc2C)cs1)c1cc2c(ccc3ccccc32)oc1=O | -8% | -11%
COc1ccc(-c2[nH]ncc2CN2CCC(O)(c3ccc(Cl)cc3)CC2)cc1 | 3% | -1%
COc1ccc(C(=O)NC(=S)N2CCCC2)cc1 | i | -19%
CN(C)Cc1c[nH]c2cc([N+](=O)[O-])ccc12 | -26% | -12%
Cc1ccc(OCc2nnc(NC(=O)OCC(C)C)s2)cc1 | . | -9%
CCc1noc(C)c1C(=O)Nc1cccc(S(=O)(=O)N2CCCCCC2)c1 | -1% | -10%
O=C(OCc1ccccc1)c1ccc2c(c1)-c1ccccc1C2=O | -18% | -8%
COc1ccc(CN2CC(C(=O)NCCCN3CCCC(C)C3)CC2=O)cc1 (configuration not stated) | -21% | -1%
O=C(COC(=O)c1ccc(O)cc1O)NCCN1C(=O)CSC1=O | -9% | -5%
O=C(NCCCN1CCOCC1)c1ccc([N+](=O)[O-])cc1[N+](=O)[O-] | -5% | -2%
CCN(CC1CCCN(CCc2cccc(OC)c2)C1)C(=O)c1ccc(COC)o1 (configuration not stated) | -12% | -6%
Cc1ccccc1CNC(=O)CCC(=O)N1CCOc2ccccc21 | -6% | 3%
Cc1ccc(NC(=O)N2CCCN(C(=O)OC(C)(C)C)CC2)cc1Cl | -12% | -4%
CC(C)C(=O)Nc1ccc2nc(SCC(=O)N3CCCC3)sc2c1 | -7% | -6%
CCOC(=O)N1CCN(S(=O)(=O)c2ccc(OCC(=O)OC)c(Cl)c2)CC1 | -4% | -6%

# Shown with values under each structure: part of the list above
# Every second line gives: Vaccinia mCherry	Vaccinia Venus
CC(C)C(=O)Nc1ccc2nc(SCC(=O)N3CCCC3)sc2c1
→ -7%	-6%
CCOC(=O)c1c(C)[nH]c(C)c1C(=O)COC(=O)c1cc2ccccc2cc1OC
→ -1%	-26%
CN(C)Cc1c[nH]c2cc([N+](=O)[O-])ccc12
→ -26%	-12%
C/C(=N\Nc1nc(-c2cc(C)ccc2C)cs1)c1cc2c(ccc3ccccc32)oc1=O
→ -8%	-11%
CCNC(=O)CC1C(=O)N(c2cccc(OC)c2)C(=O)N1Cc1ccc(OC)c(OC)c1 (configuration not stated)
→ 2%	-3%

# (list continues)
Compound | Vaccinia mCherry | Vaccinia Venus
COc1ccccc1N(CC(=O)N/N=C/c1ccc(OCC(=O)NCc2ccco2)cc1)S(=O)(=O)c1ccc(C)cc1 | . | ?
CC(C)c1nc2cc(C(=O)N3CCN(c4cnccn4)CC3)ccc2o1 | i | -12%
CC(C)c1ccc(C2c3[nH]c4ccccc4c3C[C@H]3C(=O)N(c4ccccc4C(=O)N4CCC[C@@H]4C(=O)O)C(=O)N23)cc1 (some centres not stated) | 1% | 0%
CCOc1ccc2ncc3c(-c4ccc(C)cc4)nn(-c4cccc(F)c4)c3c2c1 | -3% | -1%
Cn1cc(S(=O)(=O)c2ccccc2)c(=O)c2cc(F)c(N3CCN(c4ccc(F)cc4)CC3)cc21 | -13% | -13%
COc1ccccc1NC(=O)N1CCN(Cc2nc3ccc(C)cc3o2)CC1 | -9% | 0%
Cn1c(SCC(=O)NCc2ccccc2)ncc(C(=O)Nc2ccccc2)c1=O | -11% | -9%
Cc1cc(C)n(C(=O)CN2C(=O)CCC2=O)n1 | . | -17%
COc1ccc(CN(C(=O)/C=C/C(=O)c2ccc(OC)cc2O)C(C(=O)NC2CCCCC2)c2ccncc2)cc1 (configuration not stated) | -14% | ?
Cc1ccc(C(=O)NCC(c2cccnc2)N2CCc3ccccc32)cc1C (configuration not stated) | -13% | -23%
CCN(CC(=O)Nc1ccccc1C(F)(F)F)C(=O)C1=COCCO1 | -19% | -5%
CCCc1c(C)[nH]c2ccccc2c1=O | . | -7%
COc1ccc(N2CCN(c3ccc(C(=O)O)cc3[N+](=O)[O-])CC2)cc1 | i | -16%
Cc1cc(CNC(=O)C2CCC(=O)N(Cc3ccccc3F)C2)nn1C (configuration not stated) | i | -14%
COC(=O)[C@]12CCCCC=C1N(Cc1cccc3ccccc13)C(=O)[C@H](CC(=O)NCC1CCCCC1)C2 | -14% | -13%
CN(C)N1C(N)=C(C#N)C(c2cccs2)C2=C1CCCC2=O (configuration not stated) | -2% | -10%
O=C(NCC1CCCO1)c1ccc([N+](=O)[O-])s1 (configuration not stated) | -1% | -13%
NC(=O)C1CC(=O)N(c2ccc(OCC(=O)N3CCCC3)cc2)C1 (configuration not stated) | i | -11%
O=C(Oc1cccc(Nc2ncnc3ccccc23)c1)c1cccnc1 | -16% | -14%
COc1ccccc1CCN=C(N)NS(=O)(=O)c1cc(F)ccc1F | -14% | -10%
COc1ccc(CN2CCN(CCc3ccccc3)C(CCO)C2)c(O)c1 (configuration not stated) | ? | -19%
COc1ccc(NC(=O)NNC(=O)CCc2ccc(O)c(O)c2)cc1OC | i | 13%
N#CCSc1nnc2sc3ccccc3n12 | i | -5%
COc1ccc(CN=Cc2c(O)[nH]c3ccccc23)cc1 | -23% | -8%
COc1ccc2c(c1)c(C(=O)OCCN(C)C)c(C)n2C | -11% | -14%
O=C(C[C@@H]1C/C=C\CC[C@@H](Cc2ccc(F)cc2)C(=O)OC[C@@H]2CCCN2C1=O)N[C@H](CO)Cc1ccccc1 | -7% | -18%
CCOC(=O)c1sc(NC(=S)NC(=O)C2CCCC2)cc1C | -15% | 3%
CC(O)C(NS(=O)(=O)c1ccc(Cl)cc1)C(=O)OCC(=O)c1ccc2c(c1)NC(=O)CO2 (configuration not stated) | -13% | 8%
O=C(Cc1ccc(F)cc1)NC1CCS(=O)(=O)C1 (configuration not stated) | -8% | -10%
O=C(NC1CCCC1)C(c1ccc(F)cc1)N(Cc1ccc(F)cc1)C(=O)c1ccn[nH]1 (configuration not stated) | -7% | -4%

# Given with two lines to a compound: 4 of the compounds above
# Order of values: Vaccinia mCherry, Vaccinia Venus
> N#CCSc1nnc2sc3ccccc3n12
 : i, -5%
> COc1ccc(NC(=O)NNC(=O)CCc2ccc(O)c(O)c2)cc1OC
 : i, 13%
> CN(C)N1C(N)=C(C#N)C(c2cccs2)C2=C1CCCC2=O (configuration not stated)
 : -2%, -10%
> COc1ccc2c(c1)c(C(=O)OCCN(C)C)c(C)n2C
 : -11%, -14%

# Next part:
molecule | Vaccinia mCherry | Vaccinia Venus
CC[N+]1(CC)CC2=Cc3c(ccc4ccccc34)C(C)C2C1 (configuration not stated) | i[7.34 µM] | 2%[7.34 µM]
COc1cccc(CNC(=O)Cn2c(=O)oc3cc(S(=O)(=O)N4CCCC4)ccc32)c1 | -11% | -9%
CSc1ccccc1NC(=O)CN(C)Cc1cc(=O)n2ccsc2n1 | -3% | -10%
Cc1ccc(OCC(=O)NC(C)c2ccc(Cl)c(Cl)c2)c([N+](=O)[O-])n1 (configuration not stated) | -17% | -12%
N#Cc1cc([N+](=O)[O-])ccc1NCCc1ccccn1 | -3% | -2%
O=C(CSc1nncn2c1cc1occc12)Nc1ccccc1C(F)(F)F | -2% | -6%
Cc1cc(NC(=O)c2ccccc2[N+](=O)[O-])ccc1Br | -8% | -23%
Cc1nnc(SCc2ccc(F)cc2Cl)s1 | -11% | -12%
COc1cc(OC)cc(C(=O)Nn2c(C)nc3ccccc3c2=O)c1 | -19% | -10%
COc1ccc([C@H]2C[C@H](O)[C@@H](n3cc(-c4ccc(F)cc4)nn3)CN2CC2CCCCC2)cc1 | i | -23%
CCOC(=O)C1C(=O)NC(N2CCCCC2)=NC1c1ccco1 (configuration not stated) | . | -20%
CCn1cc(CN(C)S(=O)(=O)c2cccc([N+](=O)[O-])c2)cn1 | -9% | -12%
CC(C)Sc1nnc(NC(=O)c2ccco2)s1 | i | -10%
CCc1ccc(CN(Cc2cccnc2)C(=O)/C=C/c2ccc(OC)cc2)cc1 | -17% | -22%
Cc1cccnc1NCC(O)COc1ccccc1 (configuration not stated) | i | -14%
C[C@@H](CO)NC(=O)[C@H]1O[C@@H](n2ccc(=O)[nH]c2=O)[C@H](O)[C@@H]1O | 17% | 3%
COc1ccc(C=O)cc1CN1CCCN(Cc2ccc(Cl)cc2)S1(=O)=O | i | -7%
COCCCNC(=O)CC(NS(=O)(=O)c1ccc(C)cc1)c1ccc(OC)cc1 (configuration not stated) | -22% | 0%
O=C(CSc1nnc(-c2cccnc2)o1)Nc1ccccc1Br | 1% | -1%
COc1ccccc1NC(=O)CCc1nc(-c2ccccc2F)no1 | i | -10%
COc1ccc(-c2csc3nc(C)nc(N4CCN(c5ccc(C(C)=O)cc5)CC4)c23)cc1OC | -9% | -10%
COc1cccc2c1C(=O)C[C@]1(CCCC[C@@H]1C)O2 | i | -6%
CCOC(=O)c1c(CSc2ccccc2)oc2ccc(O)cc12 | -11% | -14%
Cc1cc(=O)n2[nH]c(NCc3ccccc3F)nc2n1 | -15% | -6%
C=CCNC(=S)N/N=C/c1ccc(-c2ccc(OC)cc2)o1 | ? | ?
CC(C)COC(=O)NCCOC(=O)Nc1cccc(Cl)c1 | -22% | -25%
CN(C)C(=O)Oc1ccc2c(c1)O/C(=C\c1cccc(Cl)c1)C2=O | -27% | -11%
COC(=O)Cc1c(CSc2ccccc2)oc2ccc(O)c(CN(C)C)c12 | -19% | -17%
O=C(NCc1nc2ccccc2[nH]1)C1=C[C@H](c2ccc3c(c2)OCO3)C[C@H](OCc2ccc(CO)cc2)O1 | -1% | ?
COc1ccc(CCNc2ccc(S(=O)(=O)N3CCCC3)cc2[N+](=O)[O-])cc1 | -24% | -21%
CCOc1ccc(-n2ccnc(SCC(=O)Nc3ccc(OC)cc3OC)c2=O)cc1 | -20% | -29%
COCCCNC(=O)c1ccc2sc([C@@H]3O[C@H](CO)[C@H](O)[C@H](O)[C@H]3O)nc2c1 | 18% | 8%
CC1(c2ccccc2Cl)NC(=O)N(CC(=O)Nc2cccnc2Cl)C1=O (configuration not stated) | -7% | -2%
COc1ccc(NC(=O)c2cc(C)n(Cc3cccs3)c2C)cc1 | -5% | -26%
COc1cccc(CC2(CO)CCN(S(=O)(=O)N(C)C)CC2)c1 | i | -11%
Cc1ccc(S(=O)(=O)Nc2ccc3nc(C)sc3c2)cc1 | . | ?
Cn1ccc(NC(=O)Nc2cccc([N+](=O)[O-])c2)n1 | -24% | -5%
CC(C)Oc1ccc(CC(=O)NNC(=S)Nc2ccc(Br)cc2)cc1 | -20% | -7%
Cc1ccccc1NC(=O)c1cc2c(C)nc3ccccc3c2o1 | i | -6%
Cc1ccc(NS(=O)(=O)c2ccc(OCC(=O)NCc3cccnc3)cc2)cc1 | -21% | -4%
Cc1nn(C)c(C)c1S(=O)(=O)N1CCCC(C(=O)NCC2COc3ccccc3O2)C1 (configuration not stated) | -7% | -8%
O=C(NC1CCCCCC1)C1CCN(C(=O)Cc2ccccc2)CC1 | . | 15%
c1ccc(C2=Nc3ccccc3OC2)cc1 | -24% | -13%
COc1cccc(C(O)c2ncc(-c3ccccc3OC)[nH]2)c1 (configuration not stated) | 14% | 5%
Cc1ccc(S(=O)(=O)Nc2cc(=O)[nH]c(SCc3ccc(Cl)cc3)n2)cc1 | 0% | -18%
CCOC(=O)C(C#N)C(=N)C1C(=O)OC2CCCCC21 (configuration not stated) | i | -4%
COc1ccc(Cl)cc1S(=O)(=O)N(C)CC(=O)NCc1ccccn1 | -3% | -5%
CC(C)Oc1c(Cl)cc(CNC(C)(C)CO)cc1Cl | -21% | -21%
CCOC(=O)c1nn(-c2ccc(F)cc2)c(=O)c(C#N)c1C | -14% | -7%
COc1cccc2[nH]c3c(=O)[nH]cnc3c12 | -10% | -9%

# Screens: PubChem BioAssay, National Center for Advancing Translational Sciences (NCATS)
